Source: PubChem BioAssay
CDC25B-CDK2 inh – human CDC25B-CDK2/CyclinA binding inhibition; HTRF CDC25B-CDK2/CyclinA binding, anti-His/anti-Flag; stronger effect = higher value; actives 0.72% (n = 94,000); z-score (concentration not given with the values); P30305+P24941;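 further: score is relative to mean and SD of negative controls; strong numbers were not always called active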
HIV TAR-Tat – HIV-1 TAR-Tat binding disruption; AID 1259389; actives 0.6% (n = 100,000); z-score (no concentration beside the values); HIV-1 TAR RNA, Tat peptide displacement FRET; stronger effect = higher value;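 further: score is relative to mean and SD of negative controls; some compounds called inactive have numbers as strong as hits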
* = called active by the depositor; / = no result given.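 How the source made its calls: active means z-score from 3 up in half or more of its runs; inactive means the rest.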 This is a random part of the collection; any-hit rate near 0.89%.

Every second line gives: CDC25B-CDK2 inh	HIV TAR-Tat
O=c1c2c(nc3n1CCOC3)sc1c(O)c(Br)ccc12
  -9.8	/
O=C(Cc1ccccc1)NC1=NCCS1
  0.16	/
Cc1cc(Nc2ccc(F)c(F)c2)n2nc(-c3ccco3)nc2n1
  /	-0.45
COc1ccc(C2Nc3ccccc3NC3=C2C(=O)CC(c2ccccc2)C3)cc1O (stereo not drawn)
  -2.2	1.3
S=c1sc2c(s1)SCC1(CS2)OCCO1
  -2.9	/
CC(C)n1cc2c(c1-c1ccc(Cl)cc1)c(=O)n(C)c(=O)n2C
  -1.3	1
O=S1(=O)c2ccccc2NC(c2ccc3c(c2)OCO3)N1Cc1ccccc1 (stereo not drawn)
  0.34	/
Cc1cc(=O)n2[nH]c(NC(=O)c3ccco3)nc2n1
  1.6	1.2
CC(C)NC(=O)N1CCn2cccc2C1C (stereo not drawn)
  /	-2.2
CCOC(=O)c1cc(C(C)(C)C)n(-c2ccc(N3CCOCC3)cc2)c1C
  -1.4	/
O=C(Cn1ncc2c1-c1ccccc1OC2)NCCCN1CCCC1
  -1.8	-0.58
Cc1cc(C)c(NC(=O)CCS(=O)(=O)c2ccc3c(c2)oc(=O)n3C)c(C)c1
  /	1.8
CCCN(CCC)Cc1nc2c(c(=O)[nH]1)C(CC)(CC)Cc1ccccc1-2
  -1.1	0.1
CN(C)CCNC(=O)c1ccc2c(=O)n3c(nc2c1)CCCC3
  /	1.6
Cc1ccc(S(=O)(=O)Nc2cccc(-c3ccc(N4CCOCC4)nn3)c2)c(C)c1
  /	1.8

New compounds follow
Every second line gives: CDC25B-CDK2 inh	HIV TAR-Tat
CC(C)C(NS(=O)(=O)c1cccs1)C(=O)NCc1ccco1 (stereo not drawn)
  /	0.4
COc1ccc(-c2oc3ccccc3c(=O)c2O)cc1
  0.69	1.5
O=S(=O)(NCc1ccco1)c1ccc(Cl)c(Cl)c1
  -2.6	/
Cn1c(=O)c(=O)n(C)c2cc(S(=O)(=O)N3CCCC3c3cccs3)ccc21 (stereo not drawn)
  -2.1	-1.3
O=C(CSc1ccc2nnc(-c3ccc(F)cc3)n2n1)NC1CCCCC1
  -1.9	/
C=CCOC(=O)c1sc(N2C(=O)c3oc4ccc(F)cc4c(=O)c3C2c2ccc(F)cc2)nc1C (stereo not drawn)
  -2.5	-3.2
COc1ccc(S(=O)(=O)Nc2ccc3c(c2)oc(=O)n3C)cc1OC
  /	0.16
Cn1cc(C2N3CC4(C)CN2CC(C)(C3)C4=O)c2ccccc21 (stereo not drawn)
  -2	/
Cc1ccc(OC(=O)CSc2nnc(-c3cccs3)o2)cc1C
  2	-1.1
COC(=O)c1cc(S(=O)(=O)N(C)CC(=O)NC2CC2)cn1C
  /	0
COc1ccc(Br)c(C(=O)NC(C)(C)CO)c1
  -1.6	/
O=C(Cn1cnc2ccccc2c1=O)Nc1nnc(CC(=O)N2CCOCC2)s1
  -0.39	1
O=C(O)CCCc1ccc2c(c1)OCCO2
  2	/
C=CCSC1=C(C#N)C(c2ccccc2OCC)CC(=O)N1 (stereo not drawn)
  0.48	-0.26
CC(C)CN1C(=O)c2ccc(C(=O)c3ccc4c(c3)C(=O)N(CC(C)C)C4=O)cc2C1=O
  -0.66	/

Random excerpt: 3 entries already listed
Every second line gives: CDC25B-CDK2 inh	HIV TAR-Tat
Cc1ccc(S(=O)(=O)Nc2cccc(-c3ccc(N4CCOCC4)nn3)c2)c(C)c1
  /	1.8
CC(C)NC(=O)N1CCn2cccc2C1C (stereo not drawn)
  /	-2.2
C=CCOC(=O)c1sc(N2C(=O)c3oc4ccc(F)cc4c(=O)c3C2c2ccc(F)cc2)nc1C (stereo not drawn)
  -2.5	-3.2

Later entries.
Every second line gives: CDC25B-CDK2 inh	HIV TAR-Tat
Cc1cc(N2C(=O)c3c(c(C)n(C)c3C)C2C(=O)NC2CCC(C)CC2)ccc1Br (stereo not drawn)
  /	1.6
COC(=O)c1ccc2nc[nH]c2c1
  -2.9	/
Cc1ccc(-c2c(N3CCN(C4CCCCC4)CC3)c(=O)c2=O)cc1C
  /	3.7
COc1ccc(-c2cc(=O)c3c(OC)cc(O)cc3o2)cc1
  /	1.7
N#Cc1nc(-c2ccc(COc3ccc(Cl)cc3)o2)oc1NCCCn1ccnc1
  -1.6	1.3
NC(=O)c1nn2c(C(F)(F)F)cc(-c3ccccc3)nc2c1Br
  0.76	0.65
O=C(Nc1ccc(Br)cn1)C1=Cc2sc3c(c2CS1)CCCC3
  /	-4
COc1cc(NC(=O)c2ccc3snnc3c2)cc(OC)c1
  -1.2	/
COC(=O)c1cc2oc3ccccc3c2n1Cc1nc(-c2ccccc2)oc1C
  1.5	-0.48
COC(=O)C1=NN(c2ccccc2)C2C(=O)N(c3ccccc3OC)C(=O)C12 (stereo not drawn)
  -2.3	0.51
COc1ccc(C2/C(=C(\O)c3ccccc3)C(=O)C(=O)N2CCN(C)C)cc1 (stereo not drawn)
  -0.25	0.26
C=CCNC(=S)NNC(=O)CSc1ccccc1[N+](=O)[O-]
  0.18	/
CCN(CC)c1cc2c(cc1F)c(=O)c(S(=O)(=O)c1ccc(C)cc1)cn2CC
  /	1.9
NC(=S)CS(=O)(=O)c1ccc(C(F)(F)F)cc1
  -2	/
COc1cccc(CC(=O)NNC(=O)c2snnc2C)c1
  -3.1	/

In the list so far, these contain a thiophene ring, fused or not:
Every second line gives: CDC25B-CDK2 inh	HIV TAR-Tat
O=c1c2c(nc3n1CCOC3)sc1c(O)c(Br)ccc12
  -9.8	/
CC(C)C(NS(=O)(=O)c1cccs1)C(=O)NCc1ccco1 (stereo not drawn)
  /	0.4
Cn1c(=O)c(=O)n(C)c2cc(S(=O)(=O)N3CCCC3c3cccs3)ccc21 (stereo not drawn)
  -2.1	-1.3
Cc1ccc(OC(=O)CSc2nnc(-c3cccs3)o2)cc1C
  2	-1.1
O=C(Nc1ccc(Br)cn1)C1=Cc2sc3c(c2CS1)CCCC3
  /	-4

Further structures.
Every second line gives: CDC25B-CDK2 inh	HIV TAR-Tat
CCn1c(CC2C(=O)N(Cc3ccccc3)c3ccccc32)nc2ccccc2c1=O (stereo not drawn)
  -0.61	0.16
CCc1ccc(-c2c(C#N)c(N)nc3c2CCCCCC3)s1
  -1.8	1.4
CCC(CO)Nc1nc2c(c(=O)n(C)c(=O)n2C)n1C (stereo not drawn)
  -1.7	/
O=C1CC(c2ccccc2)CC2=C1C(c1cccnc1)Nc1ccccc1N2 (stereo not drawn)
  -0.92	-0.85
Cc1noc(C)c1S(=O)(=O)NCC(=O)O
  /	2.2
CCOC(=O)c1cc(S(=O)(=O)N2CCc3ccccc32)cn1C
  -1.4	1.9
NC(=O)c1sc(=S)n2c1[nH]c(=O)c1ccccc12
  /	-0.55
CC(C)S(=O)(=O)c1csc(C(=O)NN)c1Cl
  -1.9	/
O=C(c1ccc(N2CCCS2(=O)=O)cc1)N1CCN(c2ccc(F)cc2)CC1
  -1.8	-0.24
COCCOC(=O)C1=C(C)NC(=O)NC1c1ccc(C)cc1 (stereo not drawn)
  -1.4	/
Cc1cc(Oc2ccc(=O)n(C)n2)nc(SCC(N)=O)n1
  -2	-0.44
CCOC(=O)c1c(C)oc2ncnc(NCCCN3CC(C)CC(C)C3)c12 (stereo not drawn)
  /	2
O=C1CC(=O)Nc2cc(S(=O)(=O)Nc3cccc4c3CCCC4)ccc2N1
  /	1.7
CCc1ccc(C2c3c(n[nH]c3C)C(=O)N2c2ccc(C)cc2)cc1 (stereo not drawn)
  /	0.67
CCOC(=O)N1CCN(Cc2nc3c(c(=O)n(C)c(=O)n3C)n2CC)CC1
  1.9	0.66

Following part
Every second line gives: CDC25B-CDK2 inh	HIV TAR-Tat
CCOC(=O)c1ccc2nc(NC(=O)CSCC(=O)OCC(=O)c3ccc(Br)cc3)sc2c1
  -16	/
Cc1cc(C)n(-c2nc(CC(=O)Nc3nccs3)cs2)n1
  -2.6	-1.2
N#Cc1c(NC(=O)COCc2cc(-c3ccc4c(c3)OCO4)on2)sc2c1CCCC2
  /	-0.2
CN(C(=O)c1cccc(N2C(=O)C(C)(C)CS2(=O)=O)c1)C1CCS(=O)(=O)C1 (stereo not drawn)
  -2.5	-0.61
COc1ccc(-c2cc(OC(=O)c3cccc(Cl)c3)c3c(C)oc(C)c3c(=O)c2)cc1OC
  -1.9	1.3
O=C(/C=C/c1ccc(O)c(O)c1)c1ccc(O)cc1O
  /	-11
Cc1cc(N2CCN(c3ccccc3)CC2)n2cnnc2n1
  -1.6	-1.3
COc1ccc(-c2nc3c4c5c(sc4ncn3n2)CCCC5)cc1
  0.23	1.4
Cc1ccc(OC(=O)c2sc3ccccc3c2Cl)c([N+](=O)[O-])n1
  -1.6	/
CN(C(=O)Cc1c(C(=O)O)[nH]c2ccc(Cl)cc12)c1ccc(Br)cc1
  -1.9	/
Cn1nc(NC(=O)C2CCC2C(=O)O)c2c(F)cccc21 (stereo not drawn)
  -2.8	/
O=C(Nc1nc2c(s1)CCCCCC2)Nc1ccccc1Br
  /	1.4
CC1(C)CC(=O)c2cc(C(N)=O)c(=O)[nH]c2C1
  -0.64	-0.28
Cc1nc(-c2csc(S(=O)(=O)Nc3c(C)n(C)n(-c4ccccc4)c3=O)c2)no1
  /	0.2
O=C(Nc1ccccc1Br)Nc1c[nH]c(=O)[nH]c1=O
  /	0.08

Later entries
Every second line gives: CDC25B-CDK2 inh	HIV TAR-Tat
CCOCCCNc1cc(N2CCN(c3ccccc3)CC2)c2noc3c2c1C(=O)c1ccccc1-3
  -1.5	1.6
O=C(Nc1ncc(Cc2ccc(F)cc2)s1)c1ccc2snnc2c1
  -1.7	-1.5
COC(=O)c1ccccc1NC(=O)c1cc(-c2ccccc2OC)on1
  -0.39	/
COc1ccc(C2=Nc3ccccc3N=C(C(F)(F)F)C2)c(O)c1
  -1.1	/
COc1ccc(-c2nnc3ccc(SC)nn23)cc1
  -1.2	/
CC1(C)Cc2c(sc3c2c(=O)n(-c2cccc(Cl)c2)c(=O)n3CC(N)=O)CO1
  1.7	2.3
CC(C)(C)c1ccc(C(=O)NCCNC(=O)c2nonc2N)cc1
  1.4	0.74
O=C(Nc1nnc(SCc2cc(=O)n3ccsc3n2)s1)C1CCCCC1
  /	0.66
Cn1c(=O)c2c(ncn2CC(O)CNc2ccc(Cl)cc2)n(C)c1=O (stereo not drawn)
  -0.54	/
Cc1cc(NC(=O)COCC(=O)O)n(C)n1
  -2.2	/
CCOC(=O)Cn1c(=O)c2c3c(sc2n(C)c1=O)COC(C)(C)C3
  -0.43	0.66
O=C(c1ccccc1Br)N(Cc1ccccc1F)C1CCS(=O)(=O)C1 (stereo not drawn)
  -1.4	-0.11
CNC(=O)c1cc(Oc2ccc(NC(=O)Nc3ccc(Cl)c(C(F)(F)F)c3)cc2)ccn1
  /	1.8
O=c1c(Cc2ccccc2)c(N2CCOCC2)nc2n1CCCS2
  -1	-0.46
CN(Cc1ccco1)c1nc(-c2ccc(Cl)cc2)nc2ccccc12
  /	0.08

Carrying on:
Every second line gives: CDC25B-CDK2 inh	HIV TAR-Tat
Cn1cc(CC(=O)Nc2ccc(F)cc2F)c2ccccc21
  -2.3	/
COCCN1C(=O)c2c(C)nc3ccccc3c2C1=O
  1.6	-0.31
Cc1nc2nc(C)c(CCC(=O)NC(C)c3ccc4c(c3)OCCO4)c(C)n2n1 (stereo not drawn)
  0.92	/
Fc1ccc(C2Sc3ccccc3N=C3c4ccccc4OCC32)cc1 (stereo not drawn)
  -1.1	/
O=C(ON=C(c1cccs1)c1cccs1)c1ccc(Cl)cc1
  -0.38	/
CCC1Sc2ccc(S(=O)(=O)CCC(=O)NCC3CCCO3)cc2NC1=O (stereo not drawn)
  /	-0.67
Cn1c(=O)c(C#N)c(-c2cccs2)n2cnnc12
  -0.43	/
O=C(Nc1c(C(=O)N2CCOCC2)oc2ccccc12)C1CC1
  /	1
CC(C)(C)OC(=O)N1CCC(C(N)=O)CC1
  -1.6	/
COc1cccc(-n2c(=O)c3sccc3n(Cc3cc(=O)n4cc(Cl)ccc4n3)c2=O)c1
  -0.78	/
CCOC(=O)N1CCC(Nc2c(NCCN3CCCCC3CC)c(=O)c2=O)CC1 (stereo not drawn)
  -0.51	-1.5
CC1CCN(c2ncc3c(n2)CCN(Cc2ccccc2F)C3)CC1
  /	0.35
Cc1csc(NC(=O)CSc2nnc(Cc3cccn3C)n2-c2ccc(F)cc2)n1
  -2.2	/
O=C(Nc1cccc(NC(=O)c2ccco2)c1)c1ccc2c(c1)OCCO2
  -0.88	/
O=C1Cc2cc(S(=O)(=O)Nc3ccccc3F)ccc2N1
  -0.23	0.57

(next part)
Every second line gives: CDC25B-CDK2 inh	HIV TAR-Tat
O=C(CC1CCCC1)Nc1nc2ccc(Cl)cc2o1
  /	-0.33
Cn1c(=O)c2cc(C(=O)N3CCN(C(=O)c4ccco4)CC3)sc2c2ccccc21
  -1.5	0.99
CSc1nnc2c(n1)OC(C1CC=C(C)CC1C)Nc1ccccc1-2 (stereo not drawn)
  0.17	-0.43
C=C1c2cc(C)ccc2NC(=O)N1c1ccc(C)cc1
  -0.5	1.7
NC(=O)CN1C(=O)C(O)(CC(=O)c2cccc(N)c2)c2ccccc21 (stereo not drawn)
  -0.98	-0.33
O=C1CCc2nc3sc4c(c3c(=O)n2N1)CCCC4
  -0.11	/
CCOc1ccc(C(=O)OCc2cc(=O)n3nc(C(C)C)sc3n2)cc1
  /	0.47
Cc1ccc(C)n1-c1nnc(N2CCC(C(=O)NCCCN3CCN(C)CC3)CC2)s1
  0.58	0.34
Cc1c(C(=O)C(=O)NCc2cccs2)c2ccccc2n1C
  -1.6	/
O=C(CSc1ccc(S(=O)(=O)C2CCCCC2)nn1)Nc1ccccc1
  -0.35	0.14
Nc1ccccc1Sc1ccc(Cl)cc1[N+](=O)[O-]
  -2.2	/
CC(=O)N1CCc2cc(S(=O)(=O)NC(CC(C)C)C(=O)NC3CCCC3)ccc21 (stereo not drawn)
  -0.25	0.88
CCc1ccc(S(=O)(=O)Nc2cnc3ccccc3c2)cc1
  -0.4	/
O=C(CC1CCCCC1)Nc1nnc2n1CCCS2
  /	1
